VDR inhibitor: Inhibitors of the vitamin D receptor (VDR): qHTS. Vitamin D3 receptor (Homo sapiens), P11473. Potency, µM, inactives show max response, negative = inhibition, hits mostly inhibitors. VDR-SRC2-3 peptide fluorescence polarization, 2 h. AID 504847, 2011. actives 0.93% (n = 400,000); active = well fitted inhibition curve with a large enough effect; inconclusive = small, poorly fitted or top-dose-only effect, or another doubt; inactive = no such curve, though single readings can be large or run the other way; note: series mostly up to about 120 µM
Target sequence (P11473 whole entry, looked up): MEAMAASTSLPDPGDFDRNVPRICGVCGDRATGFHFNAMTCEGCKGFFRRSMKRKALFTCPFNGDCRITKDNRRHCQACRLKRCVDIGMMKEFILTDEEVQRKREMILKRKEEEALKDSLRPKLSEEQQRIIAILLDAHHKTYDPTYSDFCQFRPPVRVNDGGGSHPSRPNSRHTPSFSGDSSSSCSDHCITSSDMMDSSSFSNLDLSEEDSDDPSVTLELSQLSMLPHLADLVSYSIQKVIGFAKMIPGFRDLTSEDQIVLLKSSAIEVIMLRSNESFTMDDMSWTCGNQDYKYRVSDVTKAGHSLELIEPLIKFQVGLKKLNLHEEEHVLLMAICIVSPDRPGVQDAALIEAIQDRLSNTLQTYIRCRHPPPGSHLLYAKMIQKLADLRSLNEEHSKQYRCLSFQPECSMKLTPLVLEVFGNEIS
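Inhibition of the VDR/SRC2-3 peptide interaction is quantified by fluorescence polarization. Compounds (23 nl, pintool) incubate with the reagents for 2 hours at ambient room temperature.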
* = called active by the depositor; ? = inconclusive; [ ] = dose if it differs, or a comment. % is set by controls: 0 for no effect and ±100 for the full control effect; potency is the fitted concentration of half-maximal effect. A portion of the library; count on the stated rates, not on these rows.

SMILES	VDR inhibitor
COc1ccc(C)cc1N(C(=O)c1ccco1)C(C(=O)NC1CCCC1)c1cc(OC)c(OC)c(OC)c1 (stereo not given)	12.0%
CC(C)N1C(=O)CN(C2CCCCCC2)C(=O)C1c1ccccc1F (stereo not given)	8.4%
CN1C(=O)/C(=C/c2ccccc2OCc2ccccc2F)NC1=S	-20.0%
O=c1c2ccccc2ncn1C1CCCCC1	-7.9%
CC(C)(C)CC(C)(C)n1nnnc1N	2.3%
O=C(O)C1=C[C@H](C2CC2)C[C@H](OCc2ccc(CO)cc2)O1	-14.6%
CCN1CCN(C(=O)CCN2C(=O)c3ccccc3S2(=O)=O)CC1	-16.9%
CC(NC(=O)Nc1ccccc1C(F)(F)F)C1CCCO1 (stereo not given)	-10.2%
O=C(C=Cc1cccs1)c1ccc(Cl)s1	39.8µM*
CN1CCN(NC(=O)c2cn(-c3ccccc3)nc2-c2cccs2)CC1	-8.6%
Cc1nc2c3ccccc3nc(NNC(=O)CCC(=O)NCCC(C)C)n2n1	-10.0%
COC(=O)c1ccccc1OCC(=O)N1CCN(c2ccc(OC)cc2)CC1	0.4%
COc1ccc(Br)cc1C1C2C=CCC(C)C2C(=O)N1Cc1ccccc1 (stereo not given)	-6.5%
COC(=O)c1nnn(-c2nonc2N)c1COc1ccc(C=O)cc1OC	-9.6%
CC(C)(C)c1ccc(NC(=O)COC(=O)CCc2nc3ccccc3c(=O)[nH]2)cc1	-10.0%
C(=N\N1CCN(C2c3ccccc3-c3ccccc32)CC1)/c1cccnc1	-7.8%
O=C(Nc1c2c(nn1-c1ccc([N+](=O)[O-])cc1)CS(=O)(=O)C2)c1ccco1	-10.0%
O=C(CN1C(=O)/C(=C/c2ccccc2)SC1=S)N1CCN(CCc2ccccn2)CC1	-12.8%
CCOC(=O)c1sc(-c2ccc(C(F)(F)F)cc2)nc1O	-0.1%
CCOC(=O)c1nn(-c2ccc(Cl)cc2)c(=O)c(C#N)c1C	?
CCC1(CC)CNC(=O)NC1	9.5%
Cc1ccc(Oc2ccc(C=O)cn2)cc1	20.0%
CC(C)(C)C1CCc2c(sc(NC(=O)c3ccncc3)c2C(N)=O)C1 (stereo not given)	-3.5%
Cc1ccc(Cn2c(CNC(=O)CCc3ccccc3)nc3cccnc32)cc1	-0.1%

Gathered by group, those above with a tert-butyl group (3)
SMILES	VDR inhibitor
CC(C)(C)CC(C)(C)n1nnnc1N	2.3%
CC(C)(C)c1ccc(NC(=O)COC(=O)CCc2nc3ccccc3c(=O)[nH]2)cc1	-10.0%
CC(C)(C)C1CCc2c(sc(NC(=O)c3ccncc3)c2C(N)=O)C1 (stereo not given)	-3.5%

(list continues)
SMILES	VDR inhibitor
Cc1nn(CC2CC2)c(=O)n1-c1ccccc1F	32.0%[activator]
Cc1ccccc1Cn1ccc(-c2ccc(Cl)cc2)c(C#N)c1=O	-11.9%
COc1cc(C(=O)NCc2nnc(SCC(=O)N3CCCCC3)o2)cc(OC)c1OC	1.9%
COCCn1c(=O)[nH]c2cc(C(=O)N3CCN(c4ccccc4F)CC3)ccc2c1=O	-6.7%
Cc1ccnc(NC(=O)c2cccc([N+](=O)[O-])c2C)c1	0.9%
CCOc1ccc2[nH]c(=O)c(CN(Cc3ccc(C)cc3)C(=O)N3CCCC3)cc2c1	4.2%
CCCCCCSc1ccc([C@H]2N[C@@](CC(C)C)(C(=O)OC)[C@H]3C(=O)N(C)C(=O)[C@@H]23)cc1	-12.3%
COc1ccc(NC(=O)CCNC(=O)c2ccc([N+](=O)[O-])cc2)cc1S(=O)(=O)N1CCOCC1	-25.8%
O=C(O)CCCn1cc(NC(=O)COc2cccc(Cl)c2)cn1	-15.8%
COc1cc(C(=O)NCc2nnc(SCC(=O)NCCc3ccccc3)o2)cc(OC)c1OC	-8.8%
CC(C)CC(CO)NS(=O)(=O)c1cccc(Cl)c1F (stereo not given)	-0.2%
O=C(CSCc1cc(=O)n2ccsc2n1)Nc1ccccc1	13.5%
CC(C)COC(=O)NC1c2ccccc2Oc2ccccc21	-14.1%
COc1ccc(NC(=O)/C(C#N)=C\c2ccc(OCc3ccc(C(=O)O)cc3)c(OC)c2)cc1	-7.1%
COc1ccc(C(CNC(=O)c2ccc(S(=O)(=O)N(C)C)cc2)N(C)C)cc1 (stereo not given)	10.1%
CCCNC(=O)CCc1nnc2ccc(N3CCN(c4cccc(OC)c4)CC3)nn12	8.0%
Cc1c(C(=O)N(C)C)sc2c1c(=O)n(-c1ccc(Cl)c(Cl)c1)c(=O)n2CC(=O)Nc1ccc(Br)cc1F	10.9%
CC1(C)Cc2c(sc(NC(=O)c3ccco3)c2C#N)C(C)(C)N1	-4.1%
CCOC(=O)C1CCN(Cc2c(F)cccc2Cl)CC1	-8.1%
COCCn1c(=O)[nH]c2cc(C(=O)Nc3cc(C)cc(C)c3)ccc2c1=O	15.8%
COc1ccc(C(CNS(=O)(=O)c2ccccc2)N2CCN(C)CC2)cc1 (stereo not given)	-4.1%
CCOc1ccccc1NC(=O)CCc1nnc2ccc(N3CCC(C)CC3)nn12	15.7%
FCCCOc1ccc(/C=N/OCc2ccc(Cl)cc2)cc1	-9.4%
CCOC(=O)c1c(-c2ccc(F)cc2)cn2ccccc12	1.1%

An excerpt from above in order of molar mass, lowest first:
SMILES	VDR inhibitor
CCOC(=O)c1c(-c2ccc(F)cc2)cn2ccccc12	1.1%
CCOc1ccccc1NC(=O)CCc1nnc2ccc(N3CCC(C)CC3)nn12	15.7%
COc1ccc(NC(=O)/C(C#N)=C\c2ccc(OCc3ccc(C(=O)O)cc3)c(OC)c2)cc1	-7.1%

Remaining list, next part
SMILES	VDR inhibitor
CCOc1ccc(-n2c(-c3ccco3)n[nH]c2=S)cc1	-0.2%
Cc1ccc(S(=O)(=O)CCC(=O)Nc2ccccc2C)cc1	5.0%
O=C(CN1C(=O)NC(Cc2c[nH]c3ccccc23)C1=O)Nc1cccc(S(=O)(=O)N2CCCCCC2)c1 (stereo not given)	-6.5%
COCCNCC(=O)NCC12CC3CC(CC(C3)C1)C2	-8.6%
Cc1c(C(=O)Nc2ccc(Nc3ccccc3)cc2)cccc1[N+](=O)[O-]	-16.8%
C=CCSc1nc(Oc2ccccc2)c2sccc2n1	-6.0%
Cc1cccc(N(CC(=O)Nc2ccc(F)cc2)S(C)(=O)=O)c1	5.1%
Cc1ccc(C(CC(=O)NCc2ccco2)c2ccc(OC(C)C)cc2)cc1 (stereo not given)	-5.6%
C=CCNC(=O)c1ccccc1NS(=O)(=O)c1ccccc1	-13.9%
O=C(Nc1ncc(S(=O)(=O)c2ccc([N+](=O)[O-])cc2)s1)c1ccc2ccccc2c1	-18.0%
Cc1cccc(Cn2c(-c3ccccc3)nc3ccccc32)c1	10.1%
Cc1cn2c(=O)cc(COc3ccc(C(C)(C)C)cc3)nc2s1	-7.2%
OC(COc1ccc(OCC(O)CN2CCCCCC2)cc1)CN1CCCCCC1 (stereo not given)	2.1%
O=C(Nc1nnc(C2=COCCO2)o1)c1ccc(Cc2ccccc2)cc1	-11.3%
CCn1c(CC(=O)Nc2ccccc2)nnc1SCc1nc2ccccc2c(=O)[nH]1	-18.1%
Cc1nn(C)c(C)c1S(=O)(=O)N(CC(=O)N1CCc2ccccc2C1)c1ccc(C(C)C)cc1	-6.3%
CC(C)NC(=O)Cc1csc2nc(-c3ccccc3)cn12	17.8%
O=C(N/N=C/c1ccc(F)cc1)c1ccc(Br)cc1	-2.3%
CCOC(=O)/C=c1\s/c(=C\c2ccccc2C)c(=O)n1CC(=O)NCc1ccc2c(c1)OCO2	-6.8%
COc1ccc(CC(=O)Nc2cccnc2)cc1	7.6%
O=C(N/C=N/OCc1ccc(Cl)cc1Cl)NOCc1ncc(C(F)(F)F)cc1Cl	-2.6%
O=C(NCc1ccc(F)cc1)c1ccc(CS(=O)(=O)c2ccc(Br)cc2)o1	-15.0%
CCOc1ccc2nc(/N=C/c3nc(-c4ccccc4)oc3O)sc2c1	-6.9%
C=CCn1c(SCCOc2ccccc2)nnc1C(C)NC(=O)c1ccccc1 (stereo not given)	-6.5%
CN(c1ccc(C(=O)N2CCCCC2)cc1)S(C)(=O)=O	-6.0%
Cc1cc([N+](=O)[O-])nn1CCCC(=O)Nc1sc2c(c1C(N)=O)CCCC2	31.6µM*
O=S(=O)(Nc1ncnc2sc3c(c12)CCC3)c1cc(F)ccc1F	-21.4%
CC1CCN(S(=O)(=O)c2ccc3c(c2)CCN3C(=O)CCC(=O)O)CC1	18.8%
N#CCC(=O)NNC(=S)Nc1ccccc1C(F)(F)F	-11.5%
CC(C)CC(=O)NC(=S)Nc1ccc(S(=O)(=O)N2CCN(C)CC2)cc1	3.7%
CCN(CC)C(=O)CSc1nnc(-c2ccccc2)n1-c1ccccc1	2.6%
CCOc1ccc(NS(=O)(=O)c2cc(NC(=O)CCC(=O)c3cccs3)ccc2Cl)cc1	1.7%
CC1=Nc2cc(C(=O)NCc3ccccc3Cl)ccc2Sc2c(C)ccc(C)c21	-10.4%
Cc1oc(-c2cccs2)nc1CNC[C@H]1O[C@@H](n2cnc3c(N)ncnc32)[C@H](O)[C@@H]1O	7.9%
O=C(NC(=S)NC1CCSC1=O)c1ccccc1Cl (stereo not given)	5.9%
COc1ccccc1CNC(=O)C(=O)NCC1OCCN1S(=O)(=O)c1cccs1 (stereo not given)	12.2%
COc1ccc([N+](=O)[O-])cc1/C=N/NC(=O)/C(=C\c1cccs1)NC(=O)c1ccccc1	-4.9%
Cc1cccc(N(C)S(=O)(=O)c2cc3c(cc2C)n(C)c(=O)c(=O)n3C)c1	12.0%
Cc1ccc(C(=O)O/N=C/c2ccc3c(c2)OCO3)cc1	7.0%
O=C(Nc1c2c(nn1-c1ccccc1)CS(=O)C2)c1ccco1 (stereo not given)	7.9%
CC1CCCCC1NC(=O)COC(=O)c1ccc([N+](=O)[O-])o1 (stereo not given)	8.0%
CCN(CC(=O)NC1CCCC1)S(=O)(=O)c1ccc(F)cc1	7.9%
CCS(=O)(=O)N1Cc2ccccc2CC1C(=O)Nc1ccc(OC)cc1OC (stereo not given)	-6.2%
O=C(COc1ccc(F)cc1)c1ccc2c(c1)CCCC2	-21.9%
COc1cccc(NC(=O)c2cc(-c3ccco3)nc3ccccc23)c1	22.7%
CCN(CC)c1ccc(C2C(C(C)=O)C(=O)CC(C)(O)C2C(C)=O)cc1 (stereo not given)	7.5%
CC(=O)c1ccc(NC(=O)NNS(=O)(=O)c2ccc([N+](=O)[O-])cc2)cc1	-18.6%
COc1ccc(NC(=S)NCCCN2CCN(C3CCCCC3)CC2)cc1	-9.4%
CCOC(=O)C1=CNS(=O)(=O)NC1c1cccc(O)c1 (stereo not given)	-2.1%
CNC(=O)c1c(C)nc(SCC(=O)NCc2ccc(OC)cc2)c(C#N)c1-c1ccco1	4.0%
O=C(c1cnccn1)N1CCC2(CCCN(c3ncccn3)C2)CC1	-11.5%
O=S(=O)(c1ccc2c(c1)C(=NO)c1cc(S(=O)(=O)N3CCCCC3)ccc1-2)N1CCCCC1	-7.0%
CCOc1ccc(Nc2ncnc3scc(-c4ccc(OC)cc4)c23)cc1	7.3%
COc1cc(OC)cc(C(=O)N[C@H](C(=O)NCc2ccccc2)C(C)C)c1	-8.5%
O=c1ccn(-c2cccc(C(F)(F)F)c2)nc1-c1ccn(-c2ccccc2)n1	-6.5%
COc1cccc(CNC(=O)CCC2CCCN(C(=O)CCn3cncn3)C2)c1 (stereo not given)	-3.4%
CCN(CC)S(=O)(=O)c1cccc(S(=O)(=O)c2cccc(S(=O)(=O)N(CC)CC)c2)c1	-1.2%
O=C(NCC1CCCO1)C(c1ccc(F)cc1)N(Cc1ccc2c(c1)OCO2)C(=O)c1ccc(CN2CCOCC2)o1 (stereo not given)	5.3%
CCCCC(=O)Nc1ncc([N+](=O)[O-])s1	-3.8%
CCN(CC)c1ccc(/C=N/NC(=O)OC(C)(C)C)cc1	5.0%

Given with the structure last: part of the list above.
VDR inhibitor	mol
7.3%	CCOc1ccc(Nc2ncnc3scc(-c4ccc(OC)cc4)c23)cc1
-8.5%	COc1cc(OC)cc(C(=O)N[C@H](C(=O)NCc2ccccc2)C(C)C)c1

Additional structures:
SMILES	VDR inhibitor
CCC(=O)N1CCc2cc(S(=O)(=O)CCC(=O)NCCc3ccc(OC)c(OC)c3)ccc21	2.9%
Cc1ccc(C(=O)Nc2nnc(S(=O)(=O)N3CCc4ccccc43)s2)cc1	2.5%
CCN(CC)S(=O)(=O)c1ccc2c(c1)oc(=O)n2CC(=O)NC1CCCCC1	3.3%
CCOC(=O)C(C)Sc1nc2c(cnn2-c2ccc(C)cc2)c(=O)[nH]1 (stereo not given)	5.2%
COc1ccc(CC(=O)N2CCC(Nc3nc4ccccc4n3Cc3ccc(F)cc3)CC2)cc1	1.6%
CC(=O)N1c2ccc(S(=O)(=O)N3CCC(C(=O)NCc4ccc(Cl)cc4)CC3)cc2CC1C (stereo not given)	25.1µM*
COc1ccc(OC)c(S(=O)(=O)N2CCN(C(=O)NC3CCCCC3)CC2)c1	-20.3%
COc1ccc(CCNC(=O)N[C@@H](Cc2ccccc2)C(=O)O)cc1	-1.6%
CCn1c(SCc2ccc(C#N)cc2)nnc1-c1cccc(Cl)c1	-10.0%
COc1ccc(CCC(=O)NCCCNC(=O)CCc2ccc(OC)cc2)cc1	3.1%
O=C1CC(c2ccccc2)CC(=O)C1Sc1ccc(Cl)cc1 (stereo not given)	?
Cc1ccc(S(=O)(=O)Oc2ccc(/C=C3\C(=N)N4N=C(S(C)(=O)=O)SC4=NC3=O)cc2)cc1	50.1µM*
O=C(NCc1ccccc1)C1CCN(C(=O)NCc2ccccc2)CC1	2.1%
O=C(COc1ccc([N+](=O)[O-])cc1)NNC(=S)NC(=O)c1ccc(Br)cc1	?
CN(C(=O)COn1nnc2ccc(Cl)cc21)C1CCS(=O)(=O)C1 (stereo not given)	-13.7%
Cn1c(SCCC#N)nnc1-c1ccccc1F	16.4%
C=CCn1c(SCc2n[nH]c(=S)n2-c2ccccc2)nnc1-c1ccccc1	5.7%
CCc1ccc(C(=O)/C=C2\Sc3ccccc3NC2=O)cc1	-27.0%
